GLA inh pH 4.5 = alpha-galactosidase A (human) inhibition, pH 4.5 | activity change, negative = inhibition, % at 105 µM | AID 1467 | 230,000 tested, under 10 active | P06280 | purified enzyme, 4-MU-alpha-Gal fluorescence, pH 4.5; inconclusive = small, poorly fitted or top-dose-only inhibition, or a rising curve; inactive = flat fitted curve, though single readings scatter; no compound was filed as active;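 further: 0% = full activity with enzyme and -100% = basal without enzyme; dose as in the result columns while the protocol names 77 µM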
Rango-impB inh = prevents formation of the Rango-importin beta complex | Q14974 | Rango CFP/YFP FRET sensor + importin beta, 45 min | Potency, µM (highest dose often 92.2 µM), inactives show top-dose inhibition of complex formation | 340,000 compounds, 0.031% hits | AID 540263; active = rising FRET ratio curve, often small or poorly fitted; inconclusive = mostly compound fluorescence or quenching in the first reads; inactive = flat curves in all reads;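 further: potency means the concentration at half of the fitted maximal effect; 0% = DMSO wells and 100% = buffer wells lacking importin beta; nearly all actives have a fitted effect of over 15% in size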
Target sequence (Q14974 whole entry, looked up): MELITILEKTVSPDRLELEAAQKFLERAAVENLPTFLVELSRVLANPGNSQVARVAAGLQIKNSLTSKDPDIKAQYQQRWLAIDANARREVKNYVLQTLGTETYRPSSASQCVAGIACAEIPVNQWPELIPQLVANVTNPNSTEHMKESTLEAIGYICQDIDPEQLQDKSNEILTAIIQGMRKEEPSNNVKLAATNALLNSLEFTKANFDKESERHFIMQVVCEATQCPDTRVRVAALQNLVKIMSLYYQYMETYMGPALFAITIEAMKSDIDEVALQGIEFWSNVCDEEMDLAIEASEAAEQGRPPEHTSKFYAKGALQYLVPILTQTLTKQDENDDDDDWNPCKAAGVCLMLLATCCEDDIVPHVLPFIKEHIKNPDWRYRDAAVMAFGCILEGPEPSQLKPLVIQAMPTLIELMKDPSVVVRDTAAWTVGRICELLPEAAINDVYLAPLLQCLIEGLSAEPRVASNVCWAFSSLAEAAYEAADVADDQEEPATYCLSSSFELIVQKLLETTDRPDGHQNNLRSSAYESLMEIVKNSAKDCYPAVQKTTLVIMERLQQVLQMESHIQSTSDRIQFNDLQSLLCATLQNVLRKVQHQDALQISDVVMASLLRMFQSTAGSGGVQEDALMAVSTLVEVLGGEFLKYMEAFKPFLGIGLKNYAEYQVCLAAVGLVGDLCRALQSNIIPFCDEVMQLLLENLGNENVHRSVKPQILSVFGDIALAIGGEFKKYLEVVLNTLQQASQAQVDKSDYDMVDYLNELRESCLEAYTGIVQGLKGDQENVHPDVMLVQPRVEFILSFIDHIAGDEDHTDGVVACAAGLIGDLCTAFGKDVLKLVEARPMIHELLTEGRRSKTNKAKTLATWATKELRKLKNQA
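Inhibition scored from the CFP 486 nm/YFP 530 nm FRET ratio 45 min after adding 0.125 microM importin beta to 50 nM Rango biosensor preincubated 5 min with compound (room temperature, PBS with DTT, Tween-20, BSA). No-importin wells as positive control.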
Rango dissoc inh = inhibitors of RanGTP-induced Rango-importin beta complex dissociation | O95149+P62826 | Biochemical FRET Rango-importin beta, RanGTP-induced dissociation | Potency, µM (titrated, usually from 46.1 µM), without a hit: top-dose activity change, negative = inhibition | 340,000 compounds, 0.071% hits | AID 540253; active means falling FRET ratio curve, often poorly fitted, with flat reads before Ran was added; inconclusive means other falling curves, or compound fluorescence or quenching; inactive means flat or rising ratio curve;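 further: potency means the concentration at half of the fitted maximal effect; % of control where 0% means no effect; nearly all actives have a fitted effect of over 45% in size; -100% = wells without RanGTP and RCC1; the record marks most hits as doubtful in a second field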
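Compounds sat 5 min at room temperature with 0.1 uM Rango biosensor plus 0.25 uM importin beta, then FRET pre-read. RanGTP-RCC1 (0.6 uM Ran, 2mM GTP, 0.2 uM RCC1) added for 45 min, and the CFP/YFP post-read measured blocked complex dissociation.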
miR-21 reporter = miR-21 reporter, rising signal. Potency, µM (titrated, usually from 38.3 µM), without a hit: at the highest dose reporter change, positive = more light. AID 2288. HeLa miR-21 FLuc reporter, luciferase, 48 h. 340,000 tested, under 10 active; active = well fitted rising curve with a large enough effect; inconclusive = small, poorly fitted or top-dose-only effect; inactive = no such curve, though single readings can be large or run the other way;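 further: % of control where 0% means no effect; miR-21 action dims this reporter so a rising signal means less miR-21 action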
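Luminescence from a firefly luciferase reporter carrying a miR-21 binding site downstream, stably expressed under a CMV promoter in HeLa cells that make miR-21 endogenously, reports miRNA modulation after 48 h compound exposure up to approximately 40uM final.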
* hit, by the source's call; ? = inconclusive; / = not tested or not shown; [ ] = another dose, or the depositor's remark. A portion of the library; count on the stated rates, not on these rows.

SMILES	GLA inh pH 4.5	Rango-impB inh	Rango dissoc inh	miR-21 reporter
Cc1nc([N+](=O)[O-])c(C(=O)OCc2cccc(Br)c2)n1C	-7	0.8%	0%	-23%
CC1Oc2ccccc2OC1C(=O)Nc1ccccn1 (configuration not stated)	-1	2.5%	5%	-2%
COc1ccc(C(=O)NCCSCc2ccccc2)cc1OC	-2	0.1%	12%	-9%
COc1cccc(C(=O)N/N=C(\C)c2ccc(NC(=O)Cc3ccccc3)cc2)c1OC	/	0.2%	-19%	-33%
CCCc1ccc(OCc2ccc(C(=O)N/N=C/c3cccnc3)o2)cc1	/	-3.6%	33%	-34%
COc1ccccc1-c1noc(CCC(=O)Nc2cc(C(F)(F)F)ccc2Cl)n1	-8	-0.8%	8%	0%
CCN(C(=O)COC(=O)/C=C/c1cccc(Cl)c1)c1c(N)n(Cc2ccccc2)c(=O)[nH]c1=O	/	0.5%	-17%	/
CC(CNC(=O)CCS(=O)(=O)c1ccc2c(c1)NC(=O)CO2)c1ccccc1 (configuration not stated)	/	?	?	1%
Cc1cc(NC(=O)CSc2nc3ccsc3c(=O)n2CCCCC(=O)O)no1	5	0.2%	-6%	0%
Oc1ccc(C[C@@H]2CNCCN2CCCCC2CCCCC2)cc1	/	1.2%	-8%	/
CCOC(=O)n1c(=O)[nH]c2ccc(Br)cc21	-5	0.6%	10%	4%
CCOC(=O)c1ccc(-c2cc(C)no2)[nH]1	-10	0.6%	1%	-4%
CCN(CC)CCCC(C)Nc1nccc2cccc(Cl)c12 (configuration not stated)	/	-0.5%	5%	/
CCOc1ncnc2c1sc1nc3c(cc12)COC(C)(C)C3	/	3.1%	-5%	/
Cc1ccc2nc(SCC(=O)NCc3ccc(F)cc3)nc(=O)n2c1	/	?	1%	/
CCN(C(=O)COc1cc(=O)n(C)c2ccccc12)c1cccc(Cl)c1	-3	6.4%	8%	-4%
O=C(/C=C/c1cccc(F)c1)Nc1ccc(S(=O)(=O)N2CCOCC2)cc1	/	-2.2%	0%	/
COc1cccc(C2=NOC(C(=O)Nc3cc(OC)c(OC)c(OC)c3)C2)c1 (configuration not stated)	-4	2.2%	3%	6%
CCC1(CC)Nc2ccccc2C(=O)N1c1ccc(OC)cc1	12	-3.9%	-17%	-40%
COc1cccc2[nH]c3c(N4CCC(C)CC4)ncnc3c12	7	?	0%	-17%
COc1ccc(NC(=O)c2c(F)cccc2Cl)cc1S(=O)(=O)N1CCOCC1	/	0.9%	0%	/
COc1ccc(-n2c(SCC(C)=O)nc3sc(C)c(C)c3c2=O)cc1	/	0.0%	-3%	-7%
O=C(O)CC(CC(=O)O)c1ccsc1	/	1.6%	-3%	/
COc1cc(C(=O)Nc2ccc3c(c2)C(=O)N(CCC(=O)O)C3=O)cc(OC)c1OC	-6	-0.1%	-7%	0%
Cc1ccccc1C(=O)c1c[nH]c(C(=O)NCCc2ccccn2)c1	-8	-1.9%	-5%	2%

Compounds from the list above that have four or more nitrogen atoms, in the order listed:
SMILES	GLA inh pH 4.5	Rango-impB inh	Rango dissoc inh	miR-21 reporter
CCN(C(=O)COC(=O)/C=C/c1cccc(Cl)c1)c1c(N)n(Cc2ccccc2)c(=O)[nH]c1=O	/	0.5%	-17%	/
Cc1cc(NC(=O)CSc2nc3ccsc3c(=O)n2CCCCC(=O)O)no1	5	0.2%	-6%	0%
Cc1ccc2nc(SCC(=O)NCc3ccc(F)cc3)nc(=O)n2c1	/	?	1%	/
COc1cccc2[nH]c3c(N4CCC(C)CC4)ncnc3c12	7	?	0%	-17%

(cont.)
SMILES	GLA inh pH 4.5	Rango-impB inh	Rango dissoc inh	miR-21 reporter
O=C1OC(CN2CCOCC2)CN1N=Cc1ccc([N+](=O)[O-])o1 (configuration not stated)	/	?	?	/
CCOC(=O)C1(Cc2ccccc2)CCN(Cc2cnn(C(C)C)c2)CC1	1	-5.4%	-1%	-4%
Cc1ccc(NC(=O)CSc2nnnn2-c2cccnc2)c(C)c1	/	-1.2%	5%	3%
COc1ccc(C(=O)C2CCCN(C(=O)C3=CCCC3)C2)c(C)c1 (configuration not stated)	-2	-0.5%	6%	2%
O=C(NC1CCCCC1)c1ccc(CS(=O)Cc2ccccc2Cl)o1 (configuration not stated)	/	-3.9%	45%	-2%
Cc1cc(C)n2ncc(C(=O)NCc3cccnc3)c2n1	-2	-0.4%	-5%	-7%
Nc1ccccc1S(=O)(=O)C(F)F	-3	3.5%	-2%	-2%
C1CCN=C(NC23CC4CC(CC(C4)C2)C3)CC1	-1	/	/	-3%
O=C(Nc1ccccc1O)c1ccc2c(c1)C(=O)N(Cc1ccco1)C2=O	/	-3.2%	-11%	0%
O=C(N/N=C\c1c(F)c(F)c(F)c(F)c1F)c1ccc(-c2ccccc2)cc1	/	0.3%	-9%	0%
Cc1ccnc(NC(=O)c2ccc(Cl)cc2Cl)n1	-12	/	/	-14%
Cc1ccccc1NC(=O)Cn1cccc1	-4	-7.0%	18%	-5%
COC(=O)c1ccc(N2C(=O)CC(N3CCOCC3)C2=O)cc1 (configuration not stated)	9	-3.4%	3%	0%
CC(=O)c1ccc(NC(=S)N(C)C2CCN(C)CC2)cc1	5	-3.6%	-1%	-6%
Cc1ccc(CNCC(=O)Nc2ccc(C)cc2Br)cc1	-9	-1.8%	-1%	-10%
Cc1ccc(/C=N/NC(=O)c2c[nH]c3ccccc23)s1	2	4.6%	33%	-47%
COc1cccc(NC(=O)CN(C)C(=O)c2ccc(NC(=O)CC3SC(N4CCCC4)=NC3=O)cc2)c1 (configuration not stated)	/	3.2%	31%	/
O=C(O)c1cc(NCc2ccccc2)ccc1N1CCOCC1	-3	-2.6%	14%	1%
Cc1nn(C)cc1/C=N/NC(=O)c1ccco1	-4	-2.0%	4%	-52%
CN(C1CCS(=O)(=O)C1)S(=O)(=O)c1ccccc1 (configuration not stated)	-6	0.1%	-5%	1%
COc1c(C)cc(S(=O)(=O)NCCN2CCOCC2)c(C)c1C	/	-1.2%	5%	-2%
O=c1cc(N=Nc2ccc(Cl)cc2)[nH]c(=O)[nH]1	6	1.6%	8%	-13%
COc1cccc(C(=O)C2CCCN(C(=O)CCC3=NNC(=O)CC3)C2)c1 (configuration not stated)	-11	-0.2%	3%	-14%
C/C(=N/NC(=O)CNC(=O)Cc1ccccc1)c1ccc(Cl)cc1	6	0.0%	-8%	-6%
COC(=O)C1=C(N)Oc2c(oc(CO)cc2=O)C1c1c(F)cccc1Cl (configuration not stated)	9	5.8%	-6%	2%

Structures shown so far that have a thiophene ring, fused or not:
SMILES	GLA inh pH 4.5	Rango-impB inh	Rango dissoc inh	miR-21 reporter
Cc1cc(NC(=O)CSc2nc3ccsc3c(=O)n2CCCCC(=O)O)no1	5	0.2%	-6%	0%
CCOc1ncnc2c1sc1nc3c(cc12)COC(C)(C)C3	/	3.1%	-5%	/
COc1ccc(-n2c(SCC(C)=O)nc3sc(C)c(C)c3c2=O)cc1	/	0.0%	-3%	-7%
O=C(O)CC(CC(=O)O)c1ccsc1	/	1.6%	-3%	/
Cc1ccc(/C=N/NC(=O)c2c[nH]c3ccccc23)s1	2	4.6%	33%	-47%

Going on with the list.
SMILES	GLA inh pH 4.5	Rango-impB inh	Rango dissoc inh	miR-21 reporter
CN(Cc1ccccc1)C(=O)COc1cc(=O)n(C)c2ccccc12	5	-1.1%	1%	-28%
COCCCN1C(=O)c2ccc(C(=O)N3CCN(c4ccc(OC)cc4)CC3)cc2C1=O	/	-0.7%	-1%	-1%
O=C(CN(Cc1ccccc1)S(=O)(=O)c1ccc(F)cc1)NCCC1=CCCCC1	-4	1.6%	-3%	18%
Cc1ccc(S(=O)(=O)N2CCC(C(=O)N/N=C/c3cccnc3)CC2)cc1	4	1.6%	-15%	-14%
COc1cccc(-n2c(=O)c3c(C)c(C(=O)N(C)C)sc3n(CC(=O)NCC3CCCO3)c2=O)c1 (configuration not stated)	1[21.1 µM]	-2.7%	-9%	-1%
O=C(N/N=C/c1ccc(F)cc1)c1cc(-c2ccc3c(c2)OCO3)n[nH]1	-7	-1.9%	16%	1%
O=C(NC(NCCCN1CCOCC1)(C(F)(F)F)C(F)(F)F)C1CCCCC1	0	-0.8%	5%	-6%
Nc1ccc(-c2nc3ccc(N)cc3o2)cc1	?	?	?	8%
CCCCOC(=O)C1[C@H]2C(=O)N(c3ccccc3CC)C[C@]23C=C[C@H]1O3 (some centres not stated)	-8	8.4%	2%	1%
CCCCCCn1cnc2c(oc3nc4c(cc32)CCCC4)c1=O	-1	-2.6%	-5%	-37%
CCC(C)(C)NC(=O)C(C(C)C)N(CC1CCCO1)C(=O)CNS(=O)(=O)c1ccccc1 (configuration not stated)	/	-3.8%	6%	8%
COc1ccc(COc2ccccc2C(=O)Nc2ccccn2)cc1[N+](=O)[O-]	3	8.6%	1%	-2%
C[C@@H]1C(=O)O[C@H](C)[C@H]1C[C@@H](O)[C@](C)(O)C1CC[C@@]2(O)C3=CC(=O)[C@@H]4C[C@@H](O)[C@@H](O)C[C@]4(C)C3CC[C@]12C (some centres not stated)	/	2.5%	-18%	/
O=C(O)CN1C(=O)/C(=C\c2ccccc2OCc2ccc(F)cc2)SC1=S	/	1.6%	15%	-5%
COc1ccccc1NC(=S)NNC(=O)c1ccccc1	/	1.1%	1%	/
Cc1ccc(-c2cc(C(=O)N3CC4(C)CC3CC(C)(C)C4)no2)cc1 (configuration not stated)	/	2.4%	-9%	/
CC1(CC(=O)N/N=C/c2cc3c(cc2Br)OCO3)OCCO1	-8	-1.1%	1%	-15%
COc1cc(C(=O)NCCN2CCCC2)cc(OC)c1OC	-16	0.5%	1%	1%
CC(C)CCNC(=O)CCCCn1c(=O)[nH]c2ccsc2c1=O	-3	0.4%	9%	-4%
O=C1CC(Sc2ncccn2)C(=O)N1c1ccccc1 (configuration not stated)	7	5.2%	11%	-1%
Cc1ccc(NC(=O)CSCC(=O)Nc2cccc(S(=O)(=O)N3CCCCCC3)c2)cc1	/	0.0%	-3%	/
Cc1ccc(C(CNS(=O)(=O)c2ccc(F)cc2C)N2CCN(C)CC2)cc1 (configuration not stated)	/	-0.2%	2%	/
COc1ccc(-c2nn(-c3ccccc3)cc2C(=O)N(C)CC(=O)Nc2ccccc2Br)cc1	/	-1.4%	-1%	/
CC(=O)c1ccc(N2CCN(C(=S)NCc3ccco3)CC2)cc1	-8	3.6%	-13%	3%
O=C(c1ccc2c3c(cccc13)CC2)C1CCCN(C(=O)c2ccc(=O)[nH]c2)C1 (configuration not stated)	-6	-2.8%	-6%	-1%

Ordered by SMILES length (smallest number first): some entries from above
SMILES	GLA inh pH 4.5	Rango-impB inh	Rango dissoc inh	miR-21 reporter
CC(=O)c1ccc(NC(=S)N(C)C2CCN(C)CC2)cc1	5	-3.6%	-1%	-6%
CN(Cc1ccccc1)C(=O)COc1cc(=O)n(C)c2ccccc12	5	-1.1%	1%	-28%
O=C(Nc1ccccc1O)c1ccc2c(c1)C(=O)N(Cc1ccco1)C2=O	/	-3.2%	-11%	0%
O=C(/C=C/c1cccc(F)c1)Nc1ccc(S(=O)(=O)N2CCOCC2)cc1	/	-2.2%	0%	/

(cont.)
SMILES	GLA inh pH 4.5	Rango-impB inh	Rango dissoc inh	miR-21 reporter
COc1ccc2oc(C(=O)NN3C(C)CCCC3C)c(C)c2c1 (configuration not stated)	0	-1.3%	6%	-3%
S=c1[nH]nc(COc2ccccc2)n1-c1ccccc1	-1	-9.0%	4%	0%
CSc1ncc(CN2CCCC(C(=O)Nc3ccc(-c4ccco4)cc3)C2)cn1 (configuration not stated)	/	-0.2%	-9%	-2%
CC1CCN(C(C(=O)NC2CCCCC2)c2cc3c(cc2[N+](=O)[O-])OCO3)CC1 (configuration not stated)	-4	?	/	-36%
Cc1cc(C(F)(F)F)nc(SCC(=O)Nc2cc(C)on2)n1	6	4.8%	2%	-1%
COc1ccc(NS(=O)(=O)c2ccc3c(c2)N(C(C)=O)CCO3)cc1	/	5.4%	16%	5%
Cc1cc(-n2c(C)cc(C(=O)CSc3nnc4sc5ccccc5n34)c2C)no1	-2	-1.3%	14%	2%
CCCCCOC(=O)C1=C(C)N(C)C(=O)NC1c1cc(Br)c(O)c(OC)c1 (configuration not stated)	2	3.3%	-1%	-1%

Compound activity as filed in PubChem BioAssay.
